# Screens as filed in PubChem BioAssay.
# VDR inhibitor = blocks the human vitamin D receptor; hit rate 0.93% among 400,000; Potency, µM, for inactives: max response, negative = inhibition, hits mostly inhibitors; VDR-SRC2-3 peptide fluorescence polarization, 2 h; active means well fitted inhibition curve with a large enough effect; inconclusive means small, poorly fitted or top-dose-only effect, or another doubt; inactive means no such curve, though single readings can be large or run the other way; further: series mostly up to about 120 µM
# Target sequence (P11473 whole entry, looked up): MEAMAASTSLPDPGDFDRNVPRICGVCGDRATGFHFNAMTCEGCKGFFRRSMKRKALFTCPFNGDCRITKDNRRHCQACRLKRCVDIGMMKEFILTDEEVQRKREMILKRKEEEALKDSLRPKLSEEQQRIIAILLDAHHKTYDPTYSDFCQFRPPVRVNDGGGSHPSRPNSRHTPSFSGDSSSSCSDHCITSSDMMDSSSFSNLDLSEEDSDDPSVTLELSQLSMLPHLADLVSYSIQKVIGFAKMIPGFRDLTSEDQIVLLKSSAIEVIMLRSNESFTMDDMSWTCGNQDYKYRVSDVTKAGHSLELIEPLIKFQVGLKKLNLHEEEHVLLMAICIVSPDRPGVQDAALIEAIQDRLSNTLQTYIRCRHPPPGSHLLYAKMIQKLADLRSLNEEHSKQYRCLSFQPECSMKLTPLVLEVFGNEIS
#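 FP read-out; VDR + SRC2-3 coactivator peptide; 23 nl compound by pintool; 2 h RT incubation; reagents held at 4 deg C, protected from light.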
# * = called active by the depositor; ? = inconclusive. On the % scale 0 is the no-effect control and ±100 the full control effect; potency means the concentration at half of the fitted maximal effect.
SMILES,VDR inhibitor
CCN1CCN(C(c2ccccc2F)c2nnnn2Cc2ccc3c(c2)OCO3)CC1 (centres undefined),10%
CCc1cc(C(=O)NCC(C)(C)N2CCOCC2)sc1C,6%
O=C(COc1ccc(Br)cc1)N1CCc2ccccc21,12%
CCCCc1ccc(NC(=O)CSc2nc(=O)n(CCN(CC)CC)c3c2CCCC3)cc1,-6%
OCCN1CCN(CC(O)COCC2COc3ccccc3O2)CC1 (centres undefined),3%
Oc1ccc(Nc2ccc3ccccc3c2)cc1,?
O=C1c2ccccc2NC(c2ccc3c(c2)OCCO3)N1c1ccc2c(c1)OCCO2 (centres undefined),2%
COc1ccccc1C(=O)NCc1nc2cccnc2n1Cc1ccc(F)cc1,-3%
CCOC(=O)c1c(-c2ccc(C)cc2)csc1NC(=O)CCN1CC(C)OC(C)C1 (centres undefined),-16%
O=S(=O)(c1ccc(-c2cnc(C3CC3)o2)cc1)N1CCN(c2ccc(F)cc2)CC1,-2%
COc1ccc(CC(=O)Nc2cccc(C(=O)NN3C(=O)c4ccccc4C3=O)c2C)cc1,-10%
O=C(CCC(=O)N1CCN(c2ccc(Cl)c(Cl)c2)CC1)c1ccccc1,-2%
CN(C)C(=O)CCc1ccc2c3c([nH]c2c1)[C@]1(CCC2CCCC2)[C@@H](C(=O)N2CCOCC2)C[C@H](CC(=O)NCC24CC5CC(CC(C5)C2)C4)C(=O)N1CC3,-6%
CCCOc1cccc(OCCSc2nc(C)cc(=O)[nH]2)c1,-6%
Cc1ccc(C)c(NC(=O)COC(=O)c2nn(C)c(=O)c3ccccc23)c1,?
N#Cc1c(F)cccc1NCc1cccs1,-8%
c1ccc(-c2cccc(-c3ccccn3)n2)nc1,-2%
C/C(CC(=O)Nc1cc(C)ccn1)=N\NC(=O)c1cccc(F)c1,2%
CCc1noc(C)c1C(=O)NNC(=O)c1nn(CC)c(=O)c2ccccc12,-11%
O=C(Cn1c(=O)nc(-c2ccccc2)c2ccccc21)Nc1ccc(Cl)c(C(F)(F)F)c1,14%
COCC(C)n1c(C)cc(C(=O)CSc2nnnn2-c2ccc(O)cc2)c1C (centres undefined),-6%
Brc1ccc(CN2CCCCCC2)cc1,1%
O=C(Nc1ccc(F)cc1)C1CCC(N2C(=O)c3ccccc3C2=O)CC1 (centres undefined),1%
O=C(COC(=O)CCC(=O)c1ccc(F)cc1)NC1CCCCC1,3%
CCOC(=O)C1=C(C)SC2=NS(=O)(=O)CCN21,-9%
COc1ccccc1C(=O)NCCOc1ccc(C(C)(C)C)cc1,-8%
CCCOc1ccc(CC(=O)N/N=C\c2ccc(F)cc2)cc1,6%
O=c1cc(N2CCc3ccccc3C2)[nH]c(=O)n1-c1ccc(Br)cc1,4%
CCOc1ccc2[nH]c(SCC(=O)OC)c([N+](=O)[O-])c2c1,?
CCOC(=O)CNC(=O)Cn1cnc2c(nnn2-c2ccccc2)c1=O,10%
CCc1ccc(NC(=O)N(CCN2CCOCC2)Cc2ccc3c(c2)CCCN3CC)cc1,18%
O=C(CN1C2=NCCCN2c2ccccc21)c1cccc(Br)c1,?
OCC1(c2cc(C(F)(F)F)n[nH]2)CCCCC1,-2%
Nn1c(SCC(=O)Nc2ccccc2)nnc1-c1cccnc1,10%
CC(CN1CCOCC1)OC(=O)c1ccc(Cl)cc1Cl (centres undefined),8%
COCC(C)OC(=O)c1c(N)n(CCCN2CCOCC2)c2nc3ccccc3nc12 (centres undefined),26%
CCOC(=O)C1CCN(Cc2nnc(-c3ccccc3C)o2)CC1,3%
CCNS(=O)(=O)c1ccc(NC(=S)NCc2ccco2)cc1,-4%
O=C(C1CCCN(c2nnc(-n3cccc3)s2)C1)N1CCN(c2ccccc2)CC1 (centres undefined),1%
COc1ccc(C(=O)Nc2c(O)ccc3ccccc23)cc1OC,-1%
CC(C)(C)c1ccc(OC(=O)Cn2c(C(F)(F)F)nc3ccccc32)cc1,-16%
Cc1cc(C)cc(NC(=O)Cn2cc(C=O)c3ccccc32)c1,7%
COc1cccc(OC)c1C(=O)NC(C)c1ccccc1 (centres undefined),-1%
CC[C@@]1(O)C(=O)OCc2c1cc1n(c2=O)Cc2cc3c([N+](=O)[O-])cccc3nc2-1,4%
COCCNc1cc(-c2ccccc2CN(C)C)ncn1,-2%
Cc1cc(OCc2cc(C(=O)N(C)CCc3cnn(C)c3)no2)cc(C)c1Cl,-4%
CC(C)COCC(O)CCC(=O)NNC(=S)Nc1ccccc1 (centres undefined),-16%
O=C(Nc1ccncc1)c1cc(S(=O)(=O)N2CCN(c3ccccc3)CC2)ccc1Cl,-5%
NCCC[C@@H](CC(=O)N[C@@H]1CCNC[C@H]1C(=O)N[C@H](CC(=O)N[C@@H](CCC(=O)O)CC(=O)O)Cc1c[nH]c2ccccc12)NC(=O)C[C@H](Cc1ccccc1)NC(=O)[C@@H]1CCCC[C@H]1N,12%
COc1cc2c(c(OC)c1OC)-c1ccc(N(C)CC(OC)OC)c(=O)cc1[C@@H](NC(C)=O)CC2,-7%

# Structural class, the entries above with a CF3 group
SMILES,VDR inhibitor
O=C(Cn1c(=O)nc(-c2ccccc2)c2ccccc21)Nc1ccc(Cl)c(C(F)(F)F)c1,14%
OCC1(c2cc(C(F)(F)F)n[nH]2)CCCCC1,-2%
CC(C)(C)c1ccc(OC(=O)Cn2c(C(F)(F)F)nc3ccccc32)cc1,-16%

# (list continues)
SMILES,VDR inhibitor
Cc1nc2c3ccccc3nc(NNC(=O)CCC(=O)NCCN3CCN(c4ccccc4F)CC3)n2n1,-20%
Cc1nn(CCC(=O)NNC(=S)NCC(C)C)c(C)c1Br,2%
O=C1CC(NS(=O)(=O)c2cccnc2)CN1c1cccc(F)c1 (centres undefined),2%
OCCC1CN(Cc2cnc(-c3ccccc3)s2)CCN1C1CCCCC1 (centres undefined),0%
O=C(O)C1(c2ccccc2)CCN(S(=O)(=O)c2ccc(Cl)cc2)CC1,-4%
COc1ccc(S(=O)(=O)Nc2noc3ccccc23)cc1OC,2%
CCN(CC)c1ccc2c(c1)C(=O)N(C)C2=O,15%
Cc1cc(C(=O)OCC(=O)Nc2nnc(C(C)C)s2)c2ccccc2n1,-5%
N#CCCN(C(=O)COC(=O)c1ccc2c(=O)n3c(nc2c1)CCC3)c1ccccc1,?
Cc1nnsc1-c1nc2ccccc2[nH]1,-4%
CC(=O)N(c1nc(CCl)cs1)c1c(C)cc(C)cc1C,10%
O=C(NCCc1ccc(Cl)cc1)c1nnc(Cc2ccc(Cl)cc2)o1,?
Cc1ccc(S(=O)(=O)N(CC(O)CN2CCOCC2)c2cccc([N+](=O)[O-])c2)cc1 (centres undefined),-7%
COc1cccc(NC(=O)CSc2nc3ncc(Br)cc3[nH]2)c1,5%
NC(=O)c1cc(NC(=O)c2ccc(NS(=O)(=O)c3cccs3)cc2)cc(C(N)=O)c1,3%
CN1CCCC2(CCN(C(=O)c3cccn3C)CC2)C1,-1%
CCc1ccc(-c2cn3c(n2)sc2cc(C(=O)NCCCc4ccccc4)ccc23)cc1,7%
O=C(Nc1ccc(F)cc1F)c1cc2ncc(CCCl)cn2n1,-2%
COc1ccc(-c2c(C)n([O-])c3c([n+]2=O)CCCCC3)cc1OC,-4%
Oc1ccc(-c2[nH]nc(-c3ccccc3)c2-c2nc3ccccc3[nH]2)cc1,-14%
CCOc1ccc(S(=O)(=O)N(CC)CC(=O)NCc2ccco2)cc1C,-1%
Cc1ccccc1-n1nc(C)c2cc(C(=O)N3CCN(S(=O)(=O)c4ccc(Cl)cc4)CC3)sc21,-14%
CN1CCN(P(=O)(c2ccccc2)c2nc3ccccc3s2)CC1 (centres undefined),-9%
CCOC(=O)c1c(C)oc2nc(C)nc(NCCc3ccc(Cl)cc3)c12,-3%
COc1ccc(S(=O)(=O)N2CCN(C/C=C/c3ccccc3)CC2)cc1NC(C)=O,-10%
COc1ccc(C(C#N)Nc2ccc(C)cc2)cc1 (centres undefined),12%
O=C(NCCn1cc(SCC(=O)N2CCOCC2)c2ccccc21)c1ccccc1,-1%
COc1cc(C2C(=O)N(C3CCCCC3)CC(=O)N2CCc2ccccc2)ccc1OC(C)C (centres undefined),7%
Cc1ccc(OCC(=O)NCCNC(=O)c2ccncc2)cc1,-24%
CCn1cc(-c2csc(N)n2)c(C)n1,0%
CC(C)(C)c1ccc(C(=O)CS(=O)(=O)c2ccccc2)cc1,2%
Cc1ccc(-n2c(C)c(C)c3c(NCCCO)ncnc32)cc1,-3%
CSc1ccc(CN2CCC(n3nccc3NC(=O)c3ccccc3C)CC2)cc1,-21%
O=c1oc2ccccc2c(O)c1/C=N/c1ncccn1,-14%
Cc1nc2cnc(Oc3ccccc3)nc2n(C2CC2)c1=O,-16%
CN(Cc1ccccc1)C(=O)c1[nH]cnc1C(=O)Nc1cccc(Cl)c1,-19%
COc1cc([N+](=O)[O-])ccc1NC(=O)NCc1ccccn1,-10%
Cc1cccn2c(=O)c3cc(C(=O)NC4CCCCC4)n(C)c3nc12,0%
COc1cc(C(=O)O)ccc1Cl,10%
CC(C)c1ccc(NC(=O)c2cn(C3CCCC3)c(=O)c3c2c2ccccc2n3C)cc1,-15%

# Of the compounds above, 4 contain two or more sulfur atoms.
SMILES,VDR inhibitor
CCOC(=O)C1=C(C)SC2=NS(=O)(=O)CCN21,-9%
CCNS(=O)(=O)c1ccc(NC(=S)NCc2ccco2)cc1,-4%
NC(=O)c1cc(NC(=O)c2ccc(NS(=O)(=O)c3cccs3)cc2)cc(C(N)=O)c1,3%
Cc1ccccc1-n1nc(C)c2cc(C(=O)N3CCN(S(=O)(=O)c4ccc(Cl)cc4)CC3)sc21,-14%

# (further entries)
SMILES,VDR inhibitor
Cc1cc(C)cc(NC(=O)CSc2ccc(-c3ccco3)nn2)c1,-12%
COc1ccc(NC(=O)c2oc3ccc(S(=O)(=O)N4CCC5(CC4)OCCO5)cc3c2C)cc1Cl,7%
CCOC(=O)c1c(C)c(-c2ccccc2)n(CC(=O)NC(CC)Cc2ccccc2)c1C (centres undefined),-17%
CN(Cc1ccccc1)C1=CC(=[N+]2CCCC2)CC(C)(C)C1,-9%
CC1CCCN(C(=O)c2ccc3c(=O)n(Cc4ccc5c(c4)OCO5)c(=S)[nH]c3c2)C1 (centres undefined),-19%
Cc1cccc2sc(N(CCN(C)C)C(=O)c3cc(Cl)sc3Cl)nc12,?
c1ccc2c(c1)OCC(CN1CCCCC1)O2 (centres undefined),3%
CCC(C)Nc1nc(N)c([N+](=O)[O-])c(Nc2ccccc2OC)n1 (centres undefined),7%
O=C(N/N=C/c1ccc2nccnc2c1)c1cccc([N+](=O)[O-])c1,17%
COc1ccc(C)cc1S(=O)(=O)N1CC(C)OC(C)C1 (centres undefined),15%
CCCCn1c(SCC(=O)N2CCOCC2)nc2c1c(=O)n(C)c(=O)n2C,-8%
COc1c(C)cccc1C(=O)NCCCNC(=O)c1ccc(C)nc1,6%
O=C1N(Cc2cccc(Cl)c2)C[C@@H]2C[C@@H](c3c[nH]c4ccccc34)N3CCC[C@@]123,17%
CCOP(=O)(OCC)/C(C#N)=C(\O)c1ccc(OC)cc1,26%
C[C@H]1CCC(=O)N([C@H](CSc2ccc(Br)cc2)Cc2ccccc2)CC1,-30%
CCCCN(C(=O)CNC(=O)c1ccco1)C(C(=O)NC1CCCC1)c1ccc(OC)cc1 (centres undefined),2%
NC(=O)C1=CN(Cc2ccc(Cl)cc2)CCC1C(F)(F)F (centres undefined),-3%
O=C1[C@@H]2CSC(c3ccc(C(F)(F)F)cc3)N2C(=O)N1c1ccccc1 (some centres undefined),0%
CC(Sc1nncn1C)C(=O)Nc1nnc(C(C)C)s1 (centres undefined),2%
O=C(CCNS(=O)(=O)c1ccccc1F)NC1CCCCCC1,11%

# Molecules above containing a COOH group, in the order listed:
SMILES,VDR inhibitor
NCCC[C@@H](CC(=O)N[C@@H]1CCNC[C@H]1C(=O)N[C@H](CC(=O)N[C@@H](CCC(=O)O)CC(=O)O)Cc1c[nH]c2ccccc12)NC(=O)C[C@H](Cc1ccccc1)NC(=O)[C@@H]1CCCC[C@H]1N,12%
O=C(O)C1(c2ccccc2)CCN(S(=O)(=O)c2ccc(Cl)cc2)CC1,-4%
COc1cc(C(=O)O)ccc1Cl,10%

# Later entries
SMILES,VDR inhibitor
COc1cc(CN(C)Cc2cc(=O)oc3cc(C)c(Cl)cc23)ccc1OC(F)F,-8%
Cc1ccc(C)c(OCC(=O)Nc2cccc(S(=O)(=O)NC3=NCCCCC3)c2)c1,-8%
COc1ccc(S(=O)(=O)N2CCC3(CC2)CC(=O)c2ccccc2O3)cc1,-16%
Cn1nnnc1SCC(=O)NNC(=O)c1ccc(Br)cc1,9%
Nc1ccccc1C(=O)NNC(=O)C(=O)/C=C(\O)c1ccccc1,-7%
C[C@H](O)Cn1cnc2c1c(=O)n(C)c(=O)n2C,2%
COc1ccc(S(=O)(=O)n2nc(-c3ccco3)nc2NCc2ccc(OC)c(OC)c2)cc1,0%
O=c1c2ccccc2nc(/C=C/c2ccc(Br)cc2)n1CCCO,28%
C=CCn1c(SCCC)nc2sc3c(c2c1=O)CCc1ccccc1-3,-26%
CCc1cc(-c2nc(N)ncc2-c2csc(C)n2)c(O)cc1OC,8%

# 3 compounds from above, arranged by molar mass, smallest number first.
SMILES,VDR inhibitor
Nc1ccccc1C(=O)NNC(=O)C(=O)/C=C(\O)c1ccccc1,-7%
COc1cc(CN(C)Cc2cc(=O)oc3cc(C)c(Cl)cc23)ccc1OC(F)F,-8%
COc1ccc(S(=O)(=O)n2nc(-c3ccco3)nc2NCc2ccc(OC)c(OC)c2)cc1,0%

# (list continues)
SMILES,VDR inhibitor
Nc1nnc(SCC(=O)NNC(=O)c2ccccc2)s1,4%
Cc1ccc(NC(=O)c2ccccc2NS(=O)(=O)c2ccc(Cl)s2)cc1,5%
O=C(CCCN1C(=O)C2CC=CCC2C1=O)Nc1ccccc1Cl (centres undefined),2%
CC(C)Oc1ccc(CN2CCC(n3nccc3NC(=O)c3cccnc3)CC2)cc1,-11%
CCn1ccc(C(=O)Nc2ccc(S(=O)(=O)Nc3ccccc3OC)cc2)n1,-1%
O=C(Nc1ccc2c(c1)CCC2)c1cccc(OC(F)F)c1,16%

# This is a subset; rates above refer to the full screens.
